MT1-MMP act inh: inhibitors of human MT1-MMP activation. 360,000 compounds, 0.061% hits. AID 651647. GFP/RFP ratio change, % at 20 µM. HT1080 RFP-PRO-GFP cells, GFP/RFP ratio fluorescence, overnight; percent of plate control window, DMSO zero;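 active = GFP/RFP ratio change of at least 30% with cell ATP level not reduced by more than half and red fluorescence within 50% of control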; note: strong numbers were not always called active
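system = RFP-PRO-GFP reporter HT1080 cells | dosing = 20 µM single dose, 1% DMSO | timing = overnight cell settling, then overnight compound exposure, 37 °C, 5% CO2 | read-out basis = GFP/RFP fluorescence ratio | controls = DMSO and RFP-L50D-GFP cell wells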
CSC inhib: blocks cancer stem cells; cancer stem cell-like cells viability, luminescence; inhibition, % at 7.5 µM; 300,000 compounds, 1.1% hits;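 active = mean at 75% or more and at least half the replicates too; inconclusive = mean and replicates disagree; tested in HMLE shEcad cells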;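 note: 0% = median of negative and 100% = median of positive control wells; the first replicate is given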
UUG fidelity: modulators of start codon recognition fidelity in yeast. S. cerevisiae UUG-firefly luciferase reporter, luminescence/redox ratio. activity score, % at 18.7 µM. 350,000 compounds, 0.13% hits. AID 602363;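 active = replicate mean at a twofold rise or more, about +100% in these data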;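 note: firefly luciferase made from a UUG start codon reports start codon fidelity; reporter light over untreated wells divided by growth signal over untreated wells; some hits fall short of that in this replicate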
eIF4H inh: inhibitors of RNA binding by human eIF4H | Q15056 | eIF4H fluorescence polarization binding assay | inhibition, % at 35 µM | 290,000 compounds, 0.94% hits | AID 2012;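 active = 50% or more with normal probe brightness, or confirmed in later tests; inconclusive = above 50% with abnormal brightness, or retests that disagree; inactive = below 50% or failed in later tests; about a fifth of its hits are not listed in these tables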;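 note: calls also rest on retests at 20 µM and on dose response follow-up; 0% = protein and probe with vehicle and 100% = probe without protein; strong numbers were not always called active; many hits fall short of the cut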
PABP polyA inh: blocks human PABP binding to poly(A) RNA | AID 2014 | 290,000 compounds, 1% hits | inhibition, % at 35 µM | fluorescence polarization | P11940;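 active = 50% or more with normal probe brightness, or confirmed in later tests; inconclusive = above 50% with abnormal brightness, or retests that disagree; inactive = below 50% or failed in later tests; about a fifth of its hits are not listed in these tables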;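 note: calls also rest on retests at 20 µM and on dose response follow-up; controls were probe without protein and protein plus probe with vehicle; some compounds called inactive have numbers as strong as hits; many hits fall short of the cut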
Target sequence (P11940 whole entry, looked up): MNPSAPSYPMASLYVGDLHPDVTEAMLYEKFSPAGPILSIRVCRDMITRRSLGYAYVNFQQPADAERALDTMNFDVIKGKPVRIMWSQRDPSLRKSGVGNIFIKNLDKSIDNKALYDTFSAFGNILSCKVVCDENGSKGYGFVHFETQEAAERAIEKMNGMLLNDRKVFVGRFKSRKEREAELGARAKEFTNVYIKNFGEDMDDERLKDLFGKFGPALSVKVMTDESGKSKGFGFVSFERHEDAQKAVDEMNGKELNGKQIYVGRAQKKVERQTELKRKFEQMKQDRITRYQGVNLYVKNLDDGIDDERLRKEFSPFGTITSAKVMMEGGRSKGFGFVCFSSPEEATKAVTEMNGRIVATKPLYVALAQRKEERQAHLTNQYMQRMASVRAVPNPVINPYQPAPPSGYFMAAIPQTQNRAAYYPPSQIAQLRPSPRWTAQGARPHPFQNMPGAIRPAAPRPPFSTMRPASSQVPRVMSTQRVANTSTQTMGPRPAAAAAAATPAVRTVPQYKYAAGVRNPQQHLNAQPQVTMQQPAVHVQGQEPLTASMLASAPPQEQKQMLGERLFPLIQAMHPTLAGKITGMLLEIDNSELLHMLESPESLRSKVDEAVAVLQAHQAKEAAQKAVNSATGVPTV
Rce1 inh: inhibitors of yeast Ras-converting enzyme | Q03530 | yeast membranes, quenched prenylated peptide cleavage fluorescence | calls only | 290,000 compounds, 0.27% hits;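 active = fall in fluorescence gain of 50% or more versus controls, with final raw signal at or below 3038400; inconclusive = same 50% fall but final raw signal above 3038400; inactive = fall in fluorescence gain under 50%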;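 note: plate controls were neutral control wells for no effect and wells lacking membranes for full effect; tested at 10 µM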
HIV Env fusion: inhibitors of HIV Env-mediated cell fusion | 360,000 compounds, 1.1% hits | HeLa-JRFL Env/CEM21 cell fusion, luciferase | inhibition, % at 12.3 µM;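 active = mean replicate inhibition score of at least 50 and every replicate individually at or above 50; inconclusive = only one of the two criteria met; inactive = mean below 50 and not all replicates reaching 50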;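 note: 0% = plate neutral controls and 100% = maraviroc near 300 nM; one replicate is shown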
eIF4H inh retest: further read-out of eIF4H inh, marked with its call; inhibition, %; compound at 20 µM; confirmation average;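 mean of two retest wells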
PABP polyA inh retest: also measured in PABP polyA inh; calls as there; inhibition, %; compound at 20 µM; confirmation repeats;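 mean of two retest wells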
MT1-MMP act inh RFP: recorded beside MT1-MMP act inh, whose call it bears; RFP signal change, %; measured here: RFP expression control read;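 0 = vehicle wells; hits needed this value within 50% of zero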
Starred values were filed as active, the others as inactive; i = inactive; ? = inconclusive; nt = not tested or not shown; + = active, no number. Rows were taken by chance; 3% or so of the library scored in one or more.

SMILES | MT1-MMP act inh | MT1-MMP act inh RFP | CSC inhib | UUG fidelity | eIF4H inh | PABP polyA inh | Rce1 inh | HIV Env fusion | others
O=C(Nc1ccc(F)cc1F)c1ccc2ncsc2c1 | -11 | -4 | -5 | -25 | nt | nt | i | -33
CCCNC(=O)C(=O)NCc1ccccn1 | -1 | -3 | 3 | nt | -1 | 0 | i | 6
COc1ccc(/C=N/Nc2nnc(Cc3ccccc3)c(=O)[nH]2)cc1OC | 5 | -1 | -1 | nt | ? | 1.1* | i | ? | PABP polyA inh retest=81*
COc1ccc(C(CC(=O)N2CCN(c3ccccc3)CC2)c2c(O)cc(OC)cc2OC)cc1 (stereo not drawn) | 1 | -5 | -21 | 5 | -8 | -2 | i | -31
CC1(C)CC(=O)c2cc(C(=O)NCc3ccco3)c(=O)n(-c3ccc(Cl)cc3)c2C1 | 4 | 2 | -3 | -3 | 3 | 14 | i | nt
CC(C)Cn1c(-c2cccs2)nc2ccccc21 | -5 | -6 | -11 | -18 | -6 | -3 | i | -4
O=C(CBr)N1CCc2ccccc2C(c2ccccc2)C1 (stereo not drawn) | 2 | -2 | nt | -10 | 84* | 8 | i | 9 | eIF4H inh retest=78*;PABP polyA inh retest=50
CCCC(C(=O)NNC(=O)c1cc(C)oc1C)c1ccccc1 (stereo not drawn) | 0 | -4 | -4 | nt | nt | nt | nt | 7
NS(=O)(=O)c1ccc(CCNC(=O)CSc2ccc([N+](=O)[O-])cc2)cc1 | 3 | 3 | -3 | -12 | 0 | -8 | nt | 3
COc1ccc2cc3cc(C(=O)NCCCN4CCc5ccccc5C4)sc3nc2c1 | 1 | 4 | 6 | nt | 9 | 6 | i | 3
CCOC(=O)C1=C(C)N(C[C@@H]2CC[C@@H](Cc3ccc(-c4ccccc4)cc3)O2)C(=O)NC1c1cccc([N+](=O)[O-])c1 (stereo partly drawn) | 0 | -12 | nt | -30 | nt | nt | nt | 50
COC(=O)C1=CN(c2ccc(F)c(F)c2)C=C(C(=O)OC)C1c1ccc([N+](=O)[O-])cc1 | -4 | -13 | 9 | -3 | -10 | -7 | i | 40
O=C(NC1CC1)C1=C[C@@H](C2CCCCC2)C[C@@H](OCCCCO)O1 | 1 | 2 | -10 | -6 | 10 | 13 | i | -10
Cc1nc2ccccc2c(=O)n1CCCn1ccnc1 | 3 | 3 | -16 | -6 | -12 | -10 | i | nt
CNC(=O)COC(=O)c1cc2c(C)nn(-c3ccc(F)cc3)c2s1 | -8 | -3 | -16 | -10 | 2 | 5 | i | nt
COc1ccccc1-n1c(SCC(=O)NC2CCCC2)nc2cccnc21 | 2 | 2 | -13 | 2 | 8 | -7 | i | nt
COc1ccc(S(=O)(=O)N2CCCC(C(=O)NCc3ccc4c(c3)OCO4)C2)cc1 (stereo not drawn) | -6 | -9 | -22 | -4 | 6 | -8 | i | -7
O=C(/C=C/c1ccccc1O)c1ccc(Cl)cc1 | -3 | -4 | -5 | nt | -8 | -4 | i | -24
O=C(NCCN1CCOCC1)c1cc(-c2cccc(O)c2)on1 | 5 | 1 | 9 | -13 | -2 | 2 | i | -3
COc1ccc(C2=NN(C(=O)c3cccs3)C(c3ccccc3OC)C2)cc1OC (stereo not drawn) | -9 | -9 | 8 | -13 | -8 | -7 | i | 17
CCOC(=O)CSCC(NC(=O)OC(C)(C)C)C(=O)OCC (stereo not drawn) | 0 | 3 | -2 | -21 | 6 | 2 | i | nt
Cc1ccc(C(=O)NCCN2C3=NC[C@@H](Cc4ccccc4)N3C[C@H]2Cc2ccc(O)cc2)cc1Br | -2 | -7 | 39 | 3 | 34 | 34 | i | -35
CC(=O)Nc1ccc(SCC(=O)Nc2ccccc2N2CCOCC2)cc1 | 1 | -2 | -17 | -8 | nt | nt | nt | -100
CCN(C(=O)Cc1c(C(=O)O)[nH]c2ccccc12)c1cc(OC)ccc1OC | -2 | 5 | nt | -16 | 1 | 8 | i | -50
CCN(CC)C(=O)COc1coc(CN2CCN(c3ccc(F)cc3)CC2)cc1=O | 1 | 5 | 6 | 5 | 4 | 18 | i | 1
SMILES | MT1-MMP act inh | MT1-MMP act inh RFP | CSC inhib | UUG fidelity | eIF4H inh | PABP polyA inh | Rce1 inh | HIV Env fusion | others
CN(CCO)CC(O)Cn1cnc2c1c(=O)n(C)c(=O)n2C (stereo not drawn) (tested in a mixture with another compound) | 2 | 4 | -10 | -13 | 0 | -6 | i | nt
O=C(Nc1cccc(O)c1)c1cnn2cccnc12 | 5 | 4 | -5 | -21 | 1 | 6 | i | nt
O=[N+]([O-])c1ccc(N2CCN(Cc3ccc(Br)o3)CC2)cc1 | 5 | -2 | -3 | -8 | 4 | 18 | i | 5
COc1cccc(CCN2CCC(CNS(=O)(=O)c3cc(-c4cc(C)no4)ccc3C)CC2)c1 | 2 | -11 | 7 | -3 | -2 | 2 | i | 10
Clc1ccc(COn2nnc3ccccc32)c(Cl)c1 | 0 | -4 | -5 | -2 | -10 | -5 | i | nt
C/C(O)=C\c1nc(=O)c2c(C)cc(C)nc2n1-c1ccccc1 | -2 | 2 | 7 | -14 | -4 | -1 | i | nt
CCc1ccc(Nc2nnc(SCC(=O)Nc3ccc(C(=O)O)cc3)s2)cc1 | -1 | 3 | -13 | -25 | -7 | -3 | i | -29
O=c1c(Oc2ccccc2F)coc2cc(OCc3cnn(-c4ccccc4)c3)ccc12 | 1 | 2 | -4 | nt | 7 | -6 | i | -20
CC1CC(C)(C)N2C(=O)C3(Nc4ccccc4S3)c3cccc1c32 (stereo not drawn) | -14 | -8 | 4 | -11 | 9 | 1 | i | nt
CC(C)(O)CNC(=O)Nc1ccc(Cl)c(Cl)c1 | 5 | 2 | -1 | nt | -1 | -12 | i | 6
Cc1c(Cc2ccccc2)c(=O)oc2c(C)c(OCC(=O)N3CCC(C(=O)O)CC3)ccc12 | 5 | 1 | 1 | -3 | -2 | 13 | + | nt
C[C@H]1COC(=O)[C@@H](Cc2ccc(F)cc2)CC/C=C\C[C@H](CC(=O)NCCO)C(=O)N1 | 1 | 4 | nt | -10 | nt | nt | nt | 27
O=C(NCCCNC(=O)c1ccc(Cl)cc1Cl)c1ccco1 | 2 | 2 | 5 | -26 | -4 | 4 | i | 11
O=S(=O)(Cc1ccccc1)Nc1cccc(Br)c1 | -6 | -6 | -4 | -10 | -11 | -8 | i | -7
CCOc1cccc(/C(O)=C2/C(=O)C(=O)N(CCN3CCOCC3)C2c2ccncc2)c1 (stereo not drawn) | nt | nt | -9 | nt | 2 | 7 | i | nt
Cn1c(SCc2c(F)cccc2Cl)nc2c(c1=O)SCC2 | 1 | -10 | 8 | nt | -6 | 2 | i | 5
C#CCNC(=O)c1ccc2sc([C@H]3C[C@H](O)[C@@H](CO)O3)nc2c1 | -2 | 4 | nt | -20 | nt | nt | nt | -16
CC1(C)CC(=O)C2=C(C1)Nc1ccccc1NC2c1cccs1 (stereo not drawn) | 1 | 1 | -16 | nt | 5 | -4 | i | -1
N#Cc1ccc(CSc2nnc(-c3ccccn3)n2-c2ccccc2)cc1 | -1 | 2 | -4 | -9 | -7 | -6 | i | nt
Cc1cccc(-c2nc(CCNC(=O)c3ccco3)cs2)c1 | 1 | -6 | nt | -10 | nt | nt | nt | 5
CCc1cccc(CC)c1NC(=S)Nc1ccc2cn[nH]c2c1 | 2 | -2 | -1 | -6 | 0 | 9 | i | 6
Nc1nc2sc3c(c2cc1C(=O)NCC(=O)O)CCCC3 | 4 | 5 | -14 | -19 | 1 | 0 | i | 13
CS(=O)(=O)N(Cc1ccc(C(=O)N2CCc3ccccc3C2)cc1)c1ccccc1 | -3 | -10 | 1 | nt | 2 | 5 | i | 7
N#Cc1ccccc1S(=O)(=O)N1CCN(C(=O)Cc2n[nH]c(=O)c3ccccc23)CC1 | -2 | 1 | -11 | -17 | nt | nt | nt | -31
CC(=O)N(CCOc1ccccc1)CCOc1ccccc1 | -2 | -3 | 6 | nt | nt | nt | i | -36
SMILES | MT1-MMP act inh | MT1-MMP act inh RFP | CSC inhib | UUG fidelity | eIF4H inh | PABP polyA inh | Rce1 inh | HIV Env fusion | others
Cc1cc(C)c2nc(SC(C)C#N)cc(C)c2c1 (stereo not drawn) | -5 | -1 | -25 | nt | -4 | -1 | i | nt
O=C(N/N=C/C(c1ccccc1)c1ccccc1)c1ccccc1F | -2 | -2 | -6 | nt | -2 | 6 | i | 4
CCn1c(=O)cc(OCC(=O)N2CCCC2)c2ccccc21 | 4 | 9 | -4 | 4 | -1 | 2 | i | 20
CCC1CCCCN1C(=O)CSc1nnc(CNC(=O)c2ccco2)o1 (stereo not drawn) | 8 | 0 | -9 | -15 | -6 | -7 | i | 18
COc1cc(NC(=O)c2cccc3c(-c4cnn(C)c4)coc23)cc(OC)c1OC | 0 | -11 | nt | -7 | nt | nt | nt | 37
O=c1c2ccccc2nc(SCCN2CCCCC2)n1CCc1ccccc1 | 3 | -1 | -3 | -10 | -11 | -3 | i | 21
CC(NC(=O)COC(=O)c1ccc2c(c1)OCCO2)c1ccccc1 (stereo not drawn) | -2 | 6 | -7 | -10 | nt | nt | nt | 6
CC1=NN(c2ccc(Cl)c(C(=O)O)c2)C(=O)/C1=C\c1ccc(-c2ccc(C(=O)O)cc2)o1 | -12 | 2 | nt | nt | 52* | 11 | i | 14 | eIF4H inh retest=66*;PABP polyA inh retest=8
CC(C)CCC1(CCNC(C)c2cccs2)CCOC(C)(C)C1 (stereo not drawn) | 0 | -2 | -1 | -1 | 5 | 13 | i | 17
CCOc1cc(/C=C(/C#N)c2nc3ccccc3[nH]2)ccc1Oc1ccc([N+](=O)[O-])cn1 | -7 | -6 | 5 | 1 | -1 | 3 | i | nt
CCN(CC(=O)NCc1ccc(Cl)cc1)C(=O)c1cc(S(=O)(=O)N2CCOCC2)ccc1C | 0 | -1 | -4 | -1 | nt | nt | nt | 3
COc1cc(CNC(C)(C)CO)ccc1OCC(=O)Nc1ccc(Br)cc1 | -1 | -1 | -1 | 5 | 11 | -5 | i | -56
CN(C)c1ccc(/C=C2\SC(N3CCCCC3)=NC2=O)cc1 | -92 | 2 | -7 | -31 | ? | ? | i | -35
Cc1ccc(C(=O)Nc2ccc(S(=O)(=O)N3CCOCC3)cc2)cc1Br | 1 | -5 | 2 | -2 | nt | nt | nt | 1
COc1cccc(C2/C(=C(/O)c3ccc(F)cc3)C(=O)C(=O)N2CCN(C)C)c1 (stereo not drawn) | 0 | 0 | nt | -13 | -2 | -8 | i | nt
COc1cccc(-c2nn3c(-c4cc(C)[nH]n4)nnc3s2)c1 | 16 | 7 | -6 | -2 | -5 | 3 | i | -31
O=C(NCc1ccc(Cl)cc1)c1ccc(COCC(F)(F)F)o1 | 4 | 1 | -5 | -6 | -9 | 1 | i | nt
O=C1CC2(CCCC2)Oc2ccc(F)cc21 | 5 | 5 | -6 | -11 | nt | nt | i | -13
CC(CNC(=O)Cn1ccc(NC(=O)OCc2ccccc2)nc1=O)c1ccccc1 (stereo not drawn) | 1 | 4 | 1 | -23 | nt | nt | nt | 16
COc1ccc(C2c3c(noc3C)CC(C)(O)C2C(C)=O)cc1 (stereo not drawn) | 1 | 4 | -6 | nt | 6 | 0 | i | -10
COc1cc(/C=C2/C(=N)N3C(=NC2=O)SN=C3S(=O)(=O)C(C)C)ccc1OS(=O)(=O)c1ccccc1 | nt | nt | 19 | nt | -11 | 9 | i | nt
O=C(NCCc1ccc(Cl)cc1)c1ccc2nccnc2c1 | -5 | -5 | 2 | -14 | 2 | -9 | i | -55
